# High-throughput results deposited in PubChem by ICCB-Longwood Screening Facility, Harvard Medical School.
# Sa growth 42C – inhibitors of Staphylococcus aureus growth at 42 °C; AID 720641; relative growth, % (no concentration beside the values); 0.53% of 170,000 active; S. aureus RN4220 growth, OD600, 20 h; hits give low values;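 active = growth at 42 °C up to 50% and 20 or more points under that at 30 °C, or under 10% at both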;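 note: 300 nL library stock went into each well; scaled to the means of positive and negative controls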
# GIV-Gai inh – blocks GIV peptide binding to rat Galpha-i3; P08753; Galpha-i3/FITC-GIV peptide fluorescence polarization, 90 min; hits give low values; scaled: aluminum fluoride 0%, vehicle 100%; percent of control (FP), % (test concentration not listed); 0.42% of 210,000 active; AID 1224905;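 active = replicate mean at 85% of control or lower, very high polarization wells dropped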;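 note: wells of about 15 µL received 100 nL stock; the first replicate is given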
# Target sequence (P08753 whole entry, looked up): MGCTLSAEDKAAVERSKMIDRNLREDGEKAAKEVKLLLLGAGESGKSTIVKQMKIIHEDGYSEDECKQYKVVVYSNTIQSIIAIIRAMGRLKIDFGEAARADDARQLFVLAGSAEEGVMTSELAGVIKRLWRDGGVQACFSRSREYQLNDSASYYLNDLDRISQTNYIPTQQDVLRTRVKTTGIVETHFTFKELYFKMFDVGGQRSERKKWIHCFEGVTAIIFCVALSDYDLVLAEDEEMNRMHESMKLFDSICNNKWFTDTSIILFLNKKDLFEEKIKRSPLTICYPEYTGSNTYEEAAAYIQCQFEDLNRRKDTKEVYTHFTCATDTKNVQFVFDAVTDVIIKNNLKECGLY
# HCMV UL50-53 inh – disrupts HCMV UL50-UL53 complex binding; HTRF UL50-UL53 interaction, normalized percent inhibition; inhibition, % (no concentration beside the values); 0.15% of 190,000 active; AID 1918969;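 active = both replicates at 50% or more, plus weaker picks with an unusually low signal ratio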;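 note: stock transfer was 100 nL into about 20 µL; 0% = negative control wells and 100% = wells with untagged competitor protein; inactives centre near -12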
# Sa growth 42C second temp – recorded beside Sa growth 42C, whose call it bears; relative growth, %; measured here: growth at 30 °C;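 optical density after 20 h as mean of two plates; 100% = untreated growth and lower means inhibition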
# An asterisk follows results filed as active; nt = no result given; & = joins results of further samples.
SMILES,Sa growth 42C,Sa growth 42C second temp,GIV-Gai inh,HCMV UL50-53 inh
CC(NC(=O)CN(C)Cc1cccs1)c1ccccc1 (configuration not stated),88,79,nt,1
CCOC(=O)c1c(NC(=O)CSc2nccn2C)sc2c1CCC(C)C2 (configuration not stated),88,83,nt,-12
O=C(Cn1ncc2ccsc2c1=O)N1CCN(Cc2ccccc2)CC1,97,96,106,6
Nc1nc(-c2ccc(N3CCOCC3)c(F)c2)cs1,91,80,104,-36
O=C(O)c1cc2n(n1)C(C(F)(F)F)CC(C1CC1)N2 (configuration not stated),97,94,106,-25
CC(C)(C)c1ccc(/C(N)=N/C(=O)N2CCOCC2)cc1,105,91,105,-2
O=c1[nH]cnc2c(Cl)cc(Cl)cc12,104,92,nt,13
COCCN1Cc2cccc(C(=O)Nc3ccc(C(=O)OC)cc3)c2C1=O,107,88,105,-17
O=C(CN1C(=O)c2ccccc2S1(=O)=O)Nc1ccccc1C(=O)c1ccccc1,nt,nt,104,7
CCn1c(=O)c2sccc2n2c(CCCC(=O)N3CCN(c4cc(C)ccc4C)CC3)nnc12,127,89,100,nt
O=C(C1CCN(c2nnc(-n3cccc3)s2)CC1)N1CCCC1,88,81,101,-2
Cc1ccc(Nc2ncnc3c2nc2n3CCCC2)cc1F,114,82,102&104,7
COc1ccc(C(=O)N2CCC(c3noc(-c4ccc(S(=O)(=O)N5CCCC5)cc4)n3)CC2)cc1,nt,nt,104,-11
Cc1sc(NC(=O)c2cccs2)c(CN2CCN(C)CC2)c1C,nt,nt,102,-40
O=C(Nc1nccs1)c1ccccc1-c1nc(-c2ccccc2)no1,nt,nt,100,-5
O=C(NC1CCCCC1)c1sc(=S)n2c1[nH]c(=O)c1ccccc12,-0.2*,-0.6*,101,-43
C=CCn1c(=O)c(C(=O)Nc2cc(C)cc(C)c2)c(O)c2ccccc21,nt,nt,111,-3
CNS(=O)(=O)c1cn(CC(=O)N2CCN(c3cc(C)ccc3C)CC2)cc1S(=O)(=O)NC,106,92,101,nt
COc1ccc(NC(=O)CCc2nnc3n(Cc4ccc(C)cc4)c(=O)c4ccccc4n23)cc1,102,72,99,-17
CC(C)CC(=O)Nc1ccc(C(=O)NN)cc1,105,96,nt,-6
CC(=O)NC1C(OCc2ccc(Cl)cc2Cl)OC(CO)C(O)C1O (configuration not stated),89,80,103,nt
Cc1nn(-c2ccccc2)c(C)c1CCc1nn2c(-c3cnccn3)nnc2s1,nt,nt,102,-11
CC(=O)OCc1ccccc1Sc1ccccc1C(=O)Nc1ccccc1,100,101,102,11
O=C(O)C1CC(=O)N(CCN2CCOCC2)C1 (configuration not stated),nt,nt,103,-19
CSc1ccc(C2C(C(=O)Nc3ccccc3C(F)(F)F)=C(C)NC3=C2C(=O)CC(c2ccccc2)C3)cc1 (configuration not stated),nt,nt,99,5
COc1ccc(NC(=O)c2ccccc2NS(C)(=O)=O)cc1Cl,65,43,111,4
Cc1ccc2[nH]cc(C(O)CN3CCN(c4ccc(F)cc4)CC3)c2c1 (configuration not stated),nt,nt,102,-27
COc1ccc(CCNC(=O)c2cn[nH]c2C2CCNCC2)cc1OC,87,91,100,-19
CCOc1ccc(CCNC(=O)c2cc3c(-c4ccccc4F)nn(C)c3s2)cc1,118,83,106,-18
CCOC(Cn1c(Cc2ccccc2)nc2ccccc21)OCC,115,83,nt,-23
COc1cc(C(=O)Nc2nc3nc(-c4ccccc4)cc(=O)n3[nH]2)cc(OC)c1OC,88,91,99,-6
Cc1cc(=O)oc2cc(OCC(N)=O)c(Cl)cc12,91,83,100,nt
O=C(NCCCn1cccn1)C1CCC1,103,96,101,-8
Cc1ccc(C(=O)OCc2cc(=O)n3nc(-c4cccs4)sc3n2)cc1,91,73,106,nt
CC(=O)N1c2cc(S(=O)(=O)N3CCN(c4ccccn4)CC3)c(Br)cc2CC1C (configuration not stated),nt,nt,102,-12
COc1ccc(C2c3cc(OC)c(OC)cc3CC(=O)N2c2ccc(C)c(F)c2)cc1 (configuration not stated),98,72,97,-32
CC(C)(C)C(=O)N1CCN(Cc2noc(-c3ccc(F)cc3)n2)CC1,nt,nt,109,3
Oc1c(C(c2ccc(Cl)cc2)N2CCCC2)sc2nc(-c3ccco3)nn12 (configuration not stated),97,92,100,nt
CCn1cc(S(=O)(=O)c2ccc(C)cc2)c(=O)c2cc(F)c(N3CCOCC3)cc21,77,88,100,nt
CC1CCCC(C)N1NC(=O)C1CC(=O)N(c2ccc3c(c2)OCCO3)C1 (configuration not stated),107,92,nt,-21

# Overlap with the part before: 6 compounds, then new ones.
SMILES,Sa growth 42C,Sa growth 42C second temp,GIV-Gai inh,HCMV UL50-53 inh
CC(=O)N1c2cc(S(=O)(=O)N3CCN(c4ccccn4)CC3)c(Br)cc2CC1C (configuration not stated),nt,nt,102,-12
COc1ccc(C2c3cc(OC)c(OC)cc3CC(=O)N2c2ccc(C)c(F)c2)cc1 (configuration not stated),98,72,97,-32
CC(C)(C)C(=O)N1CCN(Cc2noc(-c3ccc(F)cc3)n2)CC1,nt,nt,109,3
Oc1c(C(c2ccc(Cl)cc2)N2CCCC2)sc2nc(-c3ccco3)nn12 (configuration not stated),97,92,100,nt
CCn1cc(S(=O)(=O)c2ccc(C)cc2)c(=O)c2cc(F)c(N3CCOCC3)cc21,77,88,100,nt
CC1CCCC(C)N1NC(=O)C1CC(=O)N(c2ccc3c(c2)OCCO3)C1 (configuration not stated),107,92,nt,-21
CCNCc1ccc(-c2ccccc2)o1,83,86,104&102,-30&-19
O=C(CSc1nnc(-c2cccnc2)o1)NC1CCCC1,nt,nt,96,-22
Cc1ccc(O)c(NC(=O)C2=CC(c3ccco3)=NS(=O)(=O)N2C)c1,117,84,107,-78
Cc1ccc(NCC2COc3ccccc3O2)cc1 (configuration not stated),97,101,nt,1
COc1cc(NC(=O)CN(C)S(=O)(=O)c2ccc3[nH]c4c(c3c2)CCCC4)cc(OC)c1OC,107,89,106,nt
COC(=O)C1=C(C)NC(=O)C1(NC(=O)c1ccccc1C)C(F)(F)F (configuration not stated),88,93,102,-3
O=C1NC(=O)C(c2ccc(Cl)cc2)N1 (configuration not stated),nt,nt,104,-20
Cc1ccc(Cn2c(C(=O)Nc3ccc(F)cc3C)cc3oc(C)cc32)cc1,89,100,108,-36
Oc1ccc(/C=N/N=C/c2ccc(O)cc2)cc1,95,79,106,-42
Cc1cccc(C(=O)NNc2ncnc3c2cnn3-c2ccc(C)cc2C)c1,120,96,104,nt
O=S(=O)(C1=CC23CCCC2(C=C(S(=O)(=O)c2ccc(Cl)cc2)C3)C1)c1ccc(Cl)cc1 (configuration not stated),97,85,96,-35
COc1ccc(C2CC(=O)N2C(C(=O)Nc2c(C)cccc2C)c2ccc3c(c2)OCO3)cc1OC (configuration not stated),93,86,99,-25
CN(C)C1(CNC(=O)NC(=O)c2ccccc2)CCCCC1,84,98,nt,6
CCOC(=O)c1c(S(=O)(=O)N2CCCC(C(=O)N3CCN(c4ccccc4)CC3)C2)c(C)n(C)c1C (configuration not stated),107,91,106,nt
COc1ccc2c(c1)Sc1ccccc1N2CCN(C)C,86,83,105,-24
COc1ccc(NC(=O)c2nnn(Cc3nc(-c4ccccc4)oc3C)c2C)cc1,nt,nt,97,-15
COC(=O)c1ccccc1NC(=O)CCCC(=O)O,79,98,105,nt
CS(=O)(=O)c1cccc(CNc2nc(Nc3ccc4c(c3)CCC(=O)N4)ncc2C(F)(F)F)c1,nt,nt,99,6&-12
CSc1nnc(SCC#N)s1,103,94,106,0
CCOc1ccc(C2=C(CN3CCOCC3)C(c3ccccc3)c3ccccc3O2)cc1 (configuration not stated),83,83,100,nt
COc1ccc(-c2cnc(C)o2)cc1S(=O)(=O)Nc1ccc(C)c(F)c1,82,85,101,nt
N#Cc1ccc(OCOc2ccc(C#N)cc2)cc1,105,83,105,-8
CCc1cccc(NC(=O)c2ccc3c(=O)n4nc(Nc5ccccc5OC)sc4nc3c2)c1,76,81,105,nt
COC(=O)Cc1[nH]nc2c1C(c1c[nH]c3ccccc13)C(C#N)=C(N)O2 (configuration not stated),78,70,100,-25
CN1CCN(NC(=O)c2ccc(-c3ccccc3)cc2)CC1,115,83,98,nt
CC(=O)Nc1cc(Cl)ccc1Cl,90,94,nt,14
COc1ccc(Cn2nnnc2C(c2ccccn2)N2CCc3ccccc3C2)cc1 (configuration not stated),115,82,105,-5
CC(=O)NC1=NN(C(C)=O)C(C)(CS(=O)(=O)c2ccc(C)cc2)S1 (configuration not stated),133,82,98,nt
O=C(Nc1cccc2c1C(=O)c1ccccc1C2=O)c1ccc(S(=O)(=O)N2CCc3ccccc3C2)cc1,nt,nt,102,-29
CN1CCN(CP(=O)(N2CCCCC2)N2CCCCC2)CC1,104,90,nt,8

# Record cards, from the list above. Order of screens: Sa growth 42C	Sa growth 42C second temp	GIV-Gai inh	HCMV UL50-53 inh
# Record of CC(=O)Nc1cc(Cl)ccc1Cl : 90	94	nt	14
# Record of COc1ccc(-c2cnc(C)o2)cc1S(=O)(=O)Nc1ccc(C)c(F)c1 : 82	85	101	nt
# Record of COC(=O)Cc1[nH]nc2c1C(c1c[nH]c3ccccc13)C(C#N)=C(N)O2 (configuration not stated) : 78	70	100	-25
# Record of CCc1cccc(NC(=O)c2ccc3c(=O)n4nc(Nc5ccccc5OC)sc4nc3c2)c1 : 76	81	105	nt

# 4 entries already listed, sorted by their value in GIV-Gai inh, lowest first:
compound	GIV-Gai inh
CC(=O)NC1=NN(C(C)=O)C(C)(CS(=O)(=O)c2ccc(C)cc2)S1 (configuration not stated)	98
COC(=O)Cc1[nH]nc2c1C(c1c[nH]c3ccccc13)C(C#N)=C(N)O2 (configuration not stated)	100
O=C(Nc1cccc2c1C(=O)c1ccccc1C2=O)c1ccc(S(=O)(=O)N2CCc3ccccc3C2)cc1	102
CCc1cccc(NC(=O)c2ccc3c(=O)n4nc(Nc5ccccc5OC)sc4nc3c2)c1	105

# The results go on:
SMILES,Sa growth 42C,Sa growth 42C second temp,GIV-Gai inh,HCMV UL50-53 inh
CCOC(=O)c1cc2c(C(F)(F)F)cc(C(F)(F)F)nc2s1,95,93,nt,-33
COc1cc(C=C2C(=O)NC(=S)NC2=O)ccc1OCC(=O)O,121,91,99,nt
CCCn1c2ccccc2c2cnn(CC(=O)Nc3ccccc3OC)c(=O)c21,98,87,107,nt
CC(C)C1=NN2C(=N)/C(=C/c3ccccc3)C(=O)N=C2S1,102,97,100,nt
CCOC(=O)C1CCN(c2cc(C(=O)Nc3ccccc3F)ccn2)CC1,nt,nt,97,-36
COc1ccc(OC)c(NC(=O)C(C)n2c(=O)cc(C)c3c(C)nn(-c4ccccc4)c32)c1 (configuration not stated),88,89,98,nt
COc1ccc(NS(=O)(=O)c2ccc3c(c2)NC(=O)CCS3)cc1OC,nt,nt,114,-11
CCNC(=O)CON=C1c2ccccc2-c2ccccc21,109,85,nt,-38
c1ccc(C2C/C(=N\N3CCOCC3)c3ccccc3O2)cc1 (configuration not stated),75,93,nt,-3
CCC(=O)N1CCc2cc(Br)cc(S(=O)(=O)N3CCC(C(=O)Nc4ccccc4CC)CC3)c21,101,86,104,-41
C/C=C/c1ccc(OC)cc1,102&86,109&85,107,-50&-39
COc1ccc(OC)c2sc(N(CCCN(C)C)C(=O)c3ccco3)nc12,117,110,105,nt
COc1cc2c(cc1OC)n(CC(=O)Nc1ccc(C)cc1C)c(=O)n1nc(-c3ccccc3)nc21,100,102,105&95,-18&-7
CCN(CC)CCNC(=O)c1ccc(Cn2c(SCc3ccccc3)nc3cccnc32)cc1,129,95,95,nt
Cc1cc(C)cc(-n2nnc(C(=O)OCc3cc(C)ccc3C)c2C)c1,nt,nt,105,-22
Cc1cccc(N2NC(=O)/C(=C/c3ccc4c(c3)n(C)c(=O)n4C)C2=O)c1,91,95,105,4
